Screening results (PubChem)
VDR inh = inhibitors of human vitamin D receptor | Potency, µM, for the others: max response, negative = inhibition, actives largely listed as inhibitors | VDR-SRC2-3 peptide fluorescence polarization, 2 h | P11473 | hit rate 0.93% among 400,000; active means well fitted inhibition curve with a large enough effect; inconclusive means small, poorly fitted or top-dose-only effect, or another doubt; inactive means no such curve, though single readings can be large or run the other way; further: series mostly up to about 120 µM
Target sequence (P11473 whole entry, looked up): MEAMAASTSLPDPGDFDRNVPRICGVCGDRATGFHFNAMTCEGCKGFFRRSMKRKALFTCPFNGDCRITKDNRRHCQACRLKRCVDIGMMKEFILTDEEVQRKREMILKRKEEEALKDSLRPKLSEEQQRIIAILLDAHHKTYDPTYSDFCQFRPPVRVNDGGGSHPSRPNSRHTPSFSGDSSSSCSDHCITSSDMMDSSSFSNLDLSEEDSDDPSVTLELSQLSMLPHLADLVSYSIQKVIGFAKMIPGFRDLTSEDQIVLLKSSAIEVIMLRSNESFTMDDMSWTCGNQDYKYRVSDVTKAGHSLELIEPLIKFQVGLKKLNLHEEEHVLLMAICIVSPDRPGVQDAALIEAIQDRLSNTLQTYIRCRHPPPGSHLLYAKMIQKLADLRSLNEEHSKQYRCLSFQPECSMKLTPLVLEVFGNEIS
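Inhibition of the VDR/SRC2-3 peptide interaction is quantified by fluorescence polarization. Compounds (23 nl, pintool) incubate with the reagents for 2 hours at ambient room temperature.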
* = called active by the depositor; ? = inconclusive. On the % scale 0 is the no-effect control and ±100 the full control effect; potency means the concentration at half of the fitted maximal effect. Some of the compounds tested. The share of hits here may be higher or lower than overall.

VDR inh | compound
-3% | CC[C@@H](C)[C@@H](C(=O)N1CCN(C(=O)OC(C)(C)C)CC1)n1cc(CCCCNC(=O)OC(C)(C)C)nn1
14% | COc1cc(OC)c(OC)cc1/C=C/c1cc(C(=O)O)c2ccccc2n1
-5% | Cc1noc(C)c1C(=O)NCCC1=CCCCC1
-5% | O=C(c1ccco1)N1CCc2[nH]nc(-c3ccccc3)c2C1
-9% | CCC(c1nnc(SCC(=O)Nc2cc(Cl)ccc2C#N)n1C1CCCCC1)N(C)C (stereo not drawn)
-3% | C[C@@H](Nc1nc(-c2ccccc2)nc2c1oc1ccccc12)C(=O)O
-9% | COC(=O)c1sccc1NC(=O)COc1ccccc1Cl
-4% | CCCc1cc(-c2[nH]ncc2-c2ccc(C(=O)OCC)o2)c(O)cc1O
-18% | C(=N\Nc1nc2ccccc2[nH]1)/c1ccccc1
2% | CSc1nc2ccccc2n1Cc1cccc([N+](=O)[O-])c1
18% | COc1ccc(S(=O)(=O)Nc2ccc3c(c2)n(C)c(=O)n3C)cc1
-5% | CC1CN(c2c3c(nc4ncnn24)CCCC3)CC(C)O1 (stereo not drawn)
-2% | Cc1ccc(NC(=O)CSc2nnnn2C)cc1S(=O)(=O)N(C)C
15% | CCOC(=O)/C(=N\Nc1ccc(Br)cc1)N1CCN(c2ccccc2OC)CC1
2% | COc1cc(NS(=O)(=O)c2ccc3oc(=O)c4ncn(C)c4c3c2)cc(OC)c1
-12% | CCOC(=O)c1c(NC(=O)CSc2nnnn2CC)sc(C)c1C
-15% | O=C(NC(=S)N1CCN(c2nc(-c3ccccc3)cs2)CC1)c1cncc(Br)c1
-10% | Cc1ccc2c(c1)N(CCC(=O)NCc1ccc3c(c1)OCO3)C(=O)CO2
14% | COc1ccccc1-c1nc2cc3ccccc3cc2nc1-c1ccccc1
-19% | Clc1ccc(-c2nc3cnccn3c2NC2CCCC2)cc1
5% | Cc1onc(-c2c(Cl)cccc2Cl)c1C(=O)NCc1ccc(S(N)(=O)=O)cc1
12% | O=C(O)C1CSC2(c3ccc(F)cc3)CCC(=O)N12 (stereo not drawn)
7% | COc1ccc2[nH]c(=O)c(CN(C)C(=O)COc3ccccc3)cc2c1
3% | CCOC(=O)C1CCCN(S(=O)(=O)c2ccc(-n3cnnn3)c(C)c2)C1 (stereo not drawn)
11% | CSc1ncc(CN2CCN(C3CCCCC3)C(CCO)C2)cn1 (stereo not drawn)
-10% | COc1cc(-c2nnc(COC(=O)c3cc(C)no3)o2)cc(OC)c1OC
-6% | COc1ccc(OC)c(-c2csc(NC(=O)COC(=O)C3CCC3)n2)c1
8% | COc1ccccc1/C=C/C=N/NC(=O)CC1C(=O)NN=C1C (stereo not drawn)
-2% | O=C(COC(=O)c1cccnc1Cl)NCCc1ccc(F)cc1
1% | CCOC(=O)CC1=C(C(=O)OCC)C(c2cccnc2)C(C#N)=C(N)O1 (stereo not drawn)
-16% | OCc1nc2c(ccc3ccccc32)[nH]1
0% | Cc1cccc(NC(=O)c2sc3nc(-c4cc5ccc(O)cc5oc4=O)[nH]c(=O)c3c2C)c1
-22% | COC(=O)c1ccc(C(=O)OC)c(NC(=O)c2cnc3n(c2=O)CCS3)c1
-18% | COCCN(Cc1ccc(C)c(Br)c1)C(=O)Cn1cnc(S(=O)(=O)N2CCCC2)c1
10% | Cc1cc(C)cc(OCC(=O)NNC(=O)c2ccoc2C)c1
19% | CCOC(=O)c1ccccc1NC(=O)N1CCC(CN2CCCCC2)CC1
-2% | CCC(CC)Nc1ccc(C(CC(N)=O)NC(=O)c2ccccc2)cc1[N+](=O)[O-] (stereo not drawn)
9% | CCOCCCNc1ncc2c(n1)CC(c1ccc(C)cc1)CC2=O (stereo not drawn)
-9% | CCOc1ccc2[nH]c(C)c(CN3CCN(CC)CC3)c(=O)c2c1
-5% | COc1ccccc1N1C(=O)c2ccc(C(=O)Nc3ccccc3O)cc2C1=O
9% | O=C(COc1ccc2cc(Br)ccc2c1Br)N1CCOCC1
8% | Nc1nc2n(n1)C(c1ccco1)CC(c1ccccc1)N2 (stereo not drawn)
-12% | COc1ccc(-c2nonc2NC(=O)c2ccco2)cc1OC
5% | COc1cccc(C(C)NC(=O)c2ccncc2)c1 (stereo not drawn)
1% | O=C(NCN1C(=O)C2C3C=CC(C3)C2C1=O)Nc1ccccc1O (stereo not drawn)
9% | O=C(COC(=O)c1ccc(F)c(S(=O)(=O)N2CCOCC2)c1)NCc1ccco1
12% | CCOC(=O)c1c(C)[nH]c(CCC(=O)Nc2cc(C)ccc2OC)c1C
6% | O=C1CCC(C(=O)OCc2c(Cl)cccc2Cl)N1 (stereo not drawn)
7% | O=C(NNC1=C(C(=O)C(F)(F)F)CCC1)c1ccc(Cl)cc1
2% | CN1CCCC2(CCN(S(=O)(=O)c3ccccc3)CC2)C1
3% | CC[C@]1([C@H]2O[C@@H]([C@@H]3O[C@](O)(CO)[C@@H](C)C[C@H]3C)C[C@H]2C)CC[C@@H]([C@]2(C)CC[C@@]3(C[C@@H](O)[C@@H](C)[C@@H]([C@H](C)[C@H](OC)[C@H](C)C(=O)O)O3)O2)O1
-26% | CC1(C)CC2CC(C)(CN2C(=S)Nc2ccccc2)C1 (stereo not drawn)
? | CCCc1cc(=O)[nH]c(SCC(=O)c2ccc3c(c2)NC(=O)CO3)n1
11% | COc1ccc(OC)c(NC(=O)c2cnc(N3CCCC3)nc2C)c1
-5% | COc1ccc(C(=O)Oc2cccc3cccnc23)cc1[N+](=O)[O-]
-10% | CCOc1ccc(NC(=O)CN(C)C(=O)c2c(-c3ccccc3)noc2C)cc1OCC
-21% | CCOc1ccc(CNC(=O)CCCN2C(=O)C(c3ccccc3)Oc3cccnc32)cc1 (stereo not drawn)
-5% | Cc1ccc(NC(=O)N/C=C/c2ccc(Cl)cc2)cc1
-13% | CCN(C(=O)Cn1nc(Cc2ccncc2)c2ccccc2c1=O)c1ccc(OC)cc1
-8% | CC1CCCCC1N1CCN(C(=O)c2cccc(F)c2)CC1 (stereo not drawn)

(cont.)
VDR inh | compound
14% | CCOc1ncccc1C(=O)OCC(=O)NC1CCCCCC1
-24% | c1ccc2c(c1)CCc1snnc1-2
8% | CC(C)c1ccc(NC2=CC(=O)CC(C)(C)C2)cc1
-4% | CCc1cc(C(=O)O)c(NC(=O)c2cc(OC)c(OC)c(OC)c2)s1
5% | COc1cc(C2c3c([nH]c(=O)[nH]c3=O)Nc3ccc4ccccc4c32)ccc1O (stereo not drawn)
-1% | CCCC(=O)Nc1ccccc1OCc1cc(=O)n2cc(C)ccc2n1
17% | COc1ccc(CC(=O)NNS(=O)(=O)c2ccccc2[N+](=O)[O-])cc1
-7% | COc1ccc(-c2cc(C(=O)NCCN3CCOCC3)c3ccccc3n2)c(OC)c1
8% | CCCC(=O)N(CCN(C(=O)CCC)c1ccccc1)c1ccccc1
? | CSc1ccc(C2CC(=O)Nc3c2c(=O)n(C)c(=O)n3C)cc1 (stereo not drawn)
-9% | Cc1cc(=O)[nH]c(SCC(=O)Nc2nc3c(s2)CCCC3)n1
9% | Cc1nc(SCC(=O)N2CCCCCC2)[nH]c(=O)c1C
18% | N#Cc1cnn(-c2cccc(Cl)c2)c1-n1cccc1
25% | N#C/C(=C\c1cn(CC(=O)O)c2ccccc12)C(=O)NCc1ccccc1
18% | COC(=O)c1ccccc1NC=C1C(=O)OC2(CCCCC2)OC1=O
-26% | CN(C)CCCOC(=O)N1c2ccccc2C=Cc2ccccc21
3% | O=S(=O)(Nc1ccc2nc(C(F)(F)F)[nH]c2c1)c1ccccc1
4% | Cc1cc(N2C(=O)C(O)=C(C(=O)c3ccco3)C2c2ccccc2F)no1 (stereo not drawn)
? | CCc1ccc2nc(N3C(=O)C(O)=C(C(=O)c4ccco4)C3c3cccs3)sc2c1 (stereo not drawn)
-1% | CC1C(c2ccccc2)C(C#N)(C#N)C2(C#N)C(=O)NC1(N)C2C (stereo not drawn)
3% | CCOC(=O)Nc1ccc2c(c1)N(C(=O)CCN(CC)CC)c1ccccc1CC2
-11% | COc1ccccc1C(=O)Nc1ccc(N2CCN(C(C)=O)CC2)cc1
25µM* | CC(=O)OC1CC[C@]2(C)C(CC(OC(C)=O)[C@@]3(C)C4=CC(=O)OC(c5ccoc5)[C@]4(C)CCC23)C1(C)C (stereo partly drawn)
3% | Cn1c(NC(=O)c2ccco2)c(-c2ccccc2Cl)c(=O)c2ccccc21
0% | COC(=O)COC(=O)CC(CC(N)=O)c1ccccc1 (stereo not drawn)
19% | CCOc1ccc(CNC(=O)c2cnc(SC)nc2CC)cc1
-24% | Cc1cccc(Nc2nc3c(S(=O)(=O)c4ccccc4)nnn3c3ccccc23)c1C
0% | O=C(Nc1cccc(Cl)c1N1CCCC1)c1cc2ccccc2o1
-3% | CCCN(C(=O)c1cc(S(=O)(=O)N2CCCCC2)ccc1Cl)C1CCS(=O)(=O)C1 (stereo not drawn)
0% | O=C(NNC(=O)c1ccc2ccccc2c1O)NC1CCCCC1
-13% | CCOC(=O)/C(C#N)=C1/C=CN(Cc2ccccc2)C=N1
-2% | CN(c1ccccc1C(=O)Nc1cccc(Cl)c1Cl)S(C)(=O)=O
-10% | COc1ccccc1C(=O)Nc1ccc(C)c(S(=O)(=O)N2CCCCC2)c1
-2% | COc1ccc2c(c1)OC(=O)CC2c1ccc2c(c1)OCO2 (stereo not drawn)
? | CNC(=S)NCCc1cc2c(OC)ccc(OC)c2[nH]c1=O
-15% | CC(Oc1ccc2c(-c3ccccc3)cc(=O)oc2c1)C(=O)NCC(O)c1ccccc1 (stereo not drawn)
13% | O=C(C/C=N/OCc1ccccc1F)c1cnc(-c2ccc(Cl)cc2)s1
-16% | O=c1[nH]c2ccc(Cl)cc2c(-c2ccccc2)c1N1CCN(CCO)CC1
18% | CSc1ncc(Cl)c(C(=O)Nc2nc3ccc(F)cc3s2)n1
6% | O=C(Cn1cnc2c(nnn2-c2ccccc2)c1=O)N1CCCc2ccccc21
? | O=C(NCCS(=O)(=O)NCCc1ccccc1)c1ccccc1
0% | Cc1nn(CC(=O)Nc2cc(S(=O)(=O)N(C)C)ccc2Cl)c(C)c1[N+](=O)[O-]
8% | Cc1ccc(NC(=O)c2sc(-n3nc(C)c(CCC(C)C)c3C)nc2C)cc1C
-4% | CN(Cc1ccccc1)S(=O)(=O)c1ccc(NC(=O)c2ccccc2C(=O)O)cc1
-7% | COCCCNC(=O)C1CCN(c2ncccn2)CC1
-2% | Clc1ccc2nc3ccccn3c2c1
-10% | O=C(CSc1nnc(-c2ccccc2O)n1Cc1ccccc1)NNC(=O)c1ccccc1O
-1% | COc1ccc(-c2nc(C#N)c(NCc3ccc(C)cc3)o2)cc1OC
11% | Cc1cccc(C)c1NC(=O)CCS(=O)(=O)c1ccc2c(c1)CC(C)N2C(=O)C1CC1 (stereo not drawn)
-2% | Cc1c(C(=O)Nc2ccc3c(c2)OCCO3)oc2ccc(Br)cc12
-3% | CC(O)[C@H]1CNC(=O)C(=O)N1CCC12CC3CC(CC(C3)C1)C2 (stereo partly drawn)
? | COc1ccc(NC(=O)C2CCN(C(=O)c3cccs3)CC2)c(OC)c1
-17% | COc1ccc([C@H]2CC(=O)C=C(c3cc(C)ccc3OC)C2)cc1
6% | COC(=O)c1cccc(COC(=O)c2ccccc2NC(=O)c2ccco2)c1
-10% | CCOc1ccccc1NC(=O)c1cc(CC(C)C)oc1C
-4% | CC(=O)NCCNc1nc(-c2ccccc2C(F)(F)F)nc2ccccc12
8% | Cc1ccc(C)n1-c1sc2c(c1C#N)CCCC2
-7% | CCC(Sc1ncnc2c1c(-c1ccccc1)cn2-c1ccc(OC)cc1)C(=O)OC (stereo not drawn)
-15% | CC(=O)c1c(C)[nH]c(C(=O)N2CC(C)CC(C)C2)c1C (stereo not drawn)
-10% | CCCCCCc1c(C)[nH]c2nc3ccccc3n2c1=O

3 entries from above, sorted by the value under VDR inh, low to high:
VDR inh | compound
-15% | CC(=O)c1c(C)[nH]c(C(=O)N2CC(C)CC(C)C2)c1C (stereo not drawn)
-2% | Cc1c(C(=O)Nc2ccc3c(c2)OCCO3)oc2ccc(Br)cc12
8% | Cc1ccc(NC(=O)c2sc(-n3nc(C)c(CCC(C)C)c3C)nc2C)cc1C

The listing continues:
VDR inh | compound
3% | CC(C)OCCCn1c(=O)c2ccccc2n2c(-c3ccc(F)cc3)nnc12
-3% | Cc1cccc(SCc2noc(C(=O)NC(C)C)c2C(=O)O)c1
4% | COc1ccc2nc(N3CCCC(C(=O)NCCCN4C(C)CCCC4C)C3)sc2c1 (stereo not drawn)
-28% | CC1Nc2nc(N(C)C)[nH]c(=O)c2NC1C (stereo not drawn)

An excerpt of the results above, for reference:
VDR inh | compound
11% | Cc1cccc(C)c1NC(=O)CCS(=O)(=O)c1ccc2c(c1)CC(C)N2C(=O)C1CC1 (stereo not drawn)
-2% | Cc1c(C(=O)Nc2ccc3c(c2)OCCO3)oc2ccc(Br)cc12
-3% | CC(O)[C@H]1CNC(=O)C(=O)N1CCC12CC3CC(CC(C3)C1)C2 (stereo partly drawn)
? | COc1ccc(NC(=O)C2CCN(C(=O)c3cccs3)CC2)c(OC)c1
-17% | COc1ccc([C@H]2CC(=O)C=C(c3cc(C)ccc3OC)C2)cc1
6% | COC(=O)c1cccc(COC(=O)c2ccccc2NC(=O)c2ccco2)c1
-10% | CCOc1ccccc1NC(=O)c1cc(CC(C)C)oc1C
-4% | CC(=O)NCCNc1nc(-c2ccccc2C(F)(F)F)nc2ccccc12
8% | Cc1ccc(C)n1-c1sc2c(c1C#N)CCCC2
-7% | CCC(Sc1ncnc2c1c(-c1ccccc1)cn2-c1ccc(OC)cc1)C(=O)OC (stereo not drawn)
-15% | CC(=O)c1c(C)[nH]c(C(=O)N2CC(C)CC(C)C2)c1C (stereo not drawn)
-10% | CCCCCCc1c(C)[nH]c2nc3ccccc3n2c1=O
3% | CC(C)OCCCn1c(=O)c2ccccc2n2c(-c3ccc(F)cc3)nnc12
-3% | Cc1cccc(SCc2noc(C(=O)NC(C)C)c2C(=O)O)c1
4% | COc1ccc2nc(N3CCCC(C(=O)NCCCN4C(C)CCCC4C)C3)sc2c1 (stereo not drawn)
-28% | CC1Nc2nc(N(C)C)[nH]c(=O)c2NC1C (stereo not drawn)
